UCH37 inh = human UCH37 deubiquitinating enzyme inhibition; Q9Y5K5; purified proteasome/UCH37, Ub-AMC cleavage fluorescence; inhibition, % (test concentration not listed); 0.33% of 330,000 active;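 active = mean of two replicates above 20%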;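 note: 0% = compound-free wells with enzyme and 100% = wells lacking proteasome; stock transfer was 100 nL into about 20 µL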
Target sequence (Q9Y5K5 whole entry, looked up): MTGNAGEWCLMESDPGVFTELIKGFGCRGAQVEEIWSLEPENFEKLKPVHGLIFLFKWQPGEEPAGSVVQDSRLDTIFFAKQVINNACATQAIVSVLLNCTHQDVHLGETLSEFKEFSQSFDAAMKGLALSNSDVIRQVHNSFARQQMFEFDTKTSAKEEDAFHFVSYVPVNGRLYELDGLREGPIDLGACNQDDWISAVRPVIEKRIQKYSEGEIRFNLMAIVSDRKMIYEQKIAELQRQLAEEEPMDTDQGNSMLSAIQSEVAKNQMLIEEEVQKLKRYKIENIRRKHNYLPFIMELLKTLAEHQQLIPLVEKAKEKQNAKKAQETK
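Signal – fluorescence, ex 355 nm, em 460 nm · System – Proteasome-bound UCH37 · Input – 0.15 nM proteasome as dispensed · Timing – 30 min preincubation with enzyme, 25 min cleavage at room temperature · Read-out basis – percent inhibition of cleavage signal versus uninhibited and no-proteasome wells · Medium – Tris-HCl pH 7.4 with ATP-MgCl2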
MLL AF4-AF9 inh = blocks AF4 peptide binding to human AF9 | P42568 | AlphaScreen, biotin-AF4 peptide binding to FLAG-AF9 | inhibition, % at 10 µM | 0.47% of 350,000 active;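 active = every replicate reaching a set inhibition limit, whatever the replicate mean, cut at about 25% in these data; inconclusive = mean inhibition reaches that limit but some replicates miss it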;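 note: 0% = plate neutral control median and 100% = total signal loss; the record names both 10 and 1 µM as test concentration; the first replicate is given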
Target sequence (P42568 whole entry, looked up): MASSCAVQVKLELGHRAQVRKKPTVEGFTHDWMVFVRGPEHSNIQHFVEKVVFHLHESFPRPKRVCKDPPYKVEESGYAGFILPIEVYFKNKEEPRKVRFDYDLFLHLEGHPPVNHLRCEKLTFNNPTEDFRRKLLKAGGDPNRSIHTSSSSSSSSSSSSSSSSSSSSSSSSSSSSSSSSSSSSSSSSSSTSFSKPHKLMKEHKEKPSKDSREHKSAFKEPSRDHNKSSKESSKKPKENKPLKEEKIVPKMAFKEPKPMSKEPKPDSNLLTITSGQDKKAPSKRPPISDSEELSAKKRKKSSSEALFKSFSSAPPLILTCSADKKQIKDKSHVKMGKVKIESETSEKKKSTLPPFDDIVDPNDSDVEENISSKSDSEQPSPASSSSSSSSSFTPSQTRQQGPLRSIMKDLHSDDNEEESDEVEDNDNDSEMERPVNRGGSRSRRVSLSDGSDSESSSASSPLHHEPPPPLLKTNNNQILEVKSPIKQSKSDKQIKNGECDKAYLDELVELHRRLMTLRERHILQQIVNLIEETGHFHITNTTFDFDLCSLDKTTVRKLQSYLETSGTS
Vif TR-FRET = HIV-1 Vif–A3G interaction blockers – biochemical, TR-FRET, GST-Vif 1-94, biotin-A3G peptide, dose response retest, primary screen (AID 1117319); TR-FRET GST-Vif / biotin-A3G peptide binding; higher % means a stronger effect; test concentration not given here; strong numbers were not always called active; inhibition, %; hits with a dose series show IC50 in µM; 0.57% of 260,000 active;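 active = above the screen mean plus three standard deviations and confirmed in dose response; inconclusive = results disagree or hit not tested in dose response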;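 note: Vif residues 1-94 fused to GST binding biotinylated APOBEC3G peptide 110-148; 0% = full assay without inhibitor and 100% = GST in place of GST-Vif; retest series ran down from 100 µM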
FGF22 binding = shifts melting point of recombinant human FGF22; recombinant FGF22 thermal shift, SYPRO orange fluorescence; percent of sucrose octasulfate shift, DMSO zero; Q9HCT0; calls only at 9.99 µM; 1.5% of 340,000 active; AID 651658;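 active = melting point raised past a set limit in the mean and every replicate; inconclusive = no clear call; three in four hits are not shown here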
Target sequence (Q9HCT0 whole entry, looked up): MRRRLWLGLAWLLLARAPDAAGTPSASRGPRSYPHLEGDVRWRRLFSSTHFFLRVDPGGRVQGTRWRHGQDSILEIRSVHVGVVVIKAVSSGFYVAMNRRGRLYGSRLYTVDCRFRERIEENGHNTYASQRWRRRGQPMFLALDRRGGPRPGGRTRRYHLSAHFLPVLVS
HNF4A DNA FP = change in binding of human HNF4 alpha to DNA; 0.3% of 360,000 active; HNF4a-FITC DNA binding, fluorescence polarization, 1 h; P41235; activity change, % at 10 µM; in the data active = activity change above about 30%, passing the limit was not always enough;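 note: controls were the assay level and a saturating level of protein; the project sought stronger binding though the title names inhibitors; some compounds called inactive have numbers as strong as hits; positive values seem to mean higher polarization but the record does not say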
E coli growth = inhibitors of Escherichia coli growth; OD600, 23 h; stronger effect = lower value; OD600 absorbance (concentration not given with the values); 0.21% of 330,000 active; AID 1053175;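 active = OD600 absorbance below the run mean of sample wells minus 3.6 SD, in any replicate, cut at about 0.56 in these data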;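 note: stock transfer was 300 nL into about 60 µL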
RanGTP-Impb inh = inhibitors of RanGTP-importin-beta interaction, primary screen, biochemical, FRET, CFP-Ran, YFP-importin-beta, homogeneous; cell-free CFP-Ran/YFP-importin-beta FRET ratio; inhibition, % (concentration not given with the values); 1.1% of 300,000 active;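 active = most replicates above 15%; inconclusive = exactly half above 15%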;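 note: 0% = DMSO wells and 100% = Ran loaded with GDP instead of GTP; wells of about 40 µL received 100 nL stock; the first replicate is given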
* hit, by the source's call; i = inactive; ? = inconclusive; nt = not tested or not shown.

UCH37 inh	MLL AF4-AF9 inh	Vif TR-FRET	FGF22 binding	HNF4A DNA FP	E coli growth	RanGTP-Impb inh	smiles
5.5	-0.7	4%	i	-0.1	0.68	3.4	CNC(=O)CC1C(=O)N(C)C(=S)N1NC(=O)c1ccccc1 (stereo not given)
1.8	-0.7	nt	i	0.3	0.7	8.6	COc1cccc(C(=O)NCCS(=O)(=O)NCCc2ccc(OC)c(OC)c2)c1
1.8	0.9	14%	i	-2.0	0.64	-2.1	Cc1noc(C)c1C(=O)NNc1cc(Cl)ccc1Cl
nt	-14	nt	i	-0.1	nt	nt	CC(C)(C)c1ccc(NC(=O)c2cc(C3CCCN(S(=O)(=O)c4cccc5cccnc45)C3)on2)cc1 (stereo not given)
nt	-6.0	nt	i	2.6	nt	nt	CCCCCCCCN1C(=O)[C@H](CC(=O)NCCc2ccccc2OC)C[C@@]2(C(=O)OCC)CCC=C12
3.3	-92	nt	i	-3.4	0.66	-5.0	CCCCC1NC(C(=O)O)CS1 (stereo not given)
3.6	2.7	29%	i	-0.9	0.7	2.7	Cc1cc2cc(CNC(=S)Nc3ccc(OC(F)(F)F)cc3)ccc2[nH]1
-0.9	1.3	nt	i	1.2	0.66	5.0	COc1ccc(OC)c(S(=O)(=O)N2CCCC2C(=O)NC(C)c2ccccc2)c1 (stereo not given)
11	2.4	3%	i	-1.6	0.71	1.2	O=S1(=O)CC(O)C(N=Nc2c(O)n(Cc3ccccc3)c3ccccc23)C1 (stereo not given)
i	-7.4	76%	i	-0.7	0.7	-3.5	CCOC(=O)N1CCN(C(=O)c2cc3c(s2)-c2ccccc2OC3)CC1
-0.9	-3.3	-10%	i	5.1	0.7	-1.6	CN(CC(=O)Nc1ccccc1C(F)(F)F)C(=O)C1CCN(C(=O)c2ccc(Cl)cc2)CC1
0.4	nt	-2%	nt	-1.2	0.68	4.8	COC(=O)c1nn(-c2c(C)n(C)n(-c3ccccc3)c2=O)cc1O

More records:
UCH37 inh	MLL AF4-AF9 inh	Vif TR-FRET	FGF22 binding	HNF4A DNA FP	E coli growth	RanGTP-Impb inh	smiles
3.6	-0.6	7%	i	0.7	0.73	1.9	CC(C)Nc1nc(NC(C)C)nc(C(=O)OCCO)n1
-8.2	nt	1%	nt	-2.2	0.7	2.4	CC(=O)NCCOc1cccc2cccnc12
0.6	-4.8	-3%	i	2.5	0.62	0.0	COc1cc2c(cc1C1NC(=S)NC(C)=C1C(N)=O)CCCC2 (stereo not given)
-0.7	nt	-3%	nt	-0.9	0.79	-4.4	CCCC(=O)c1ccc(N2CCN(C(=O)c3ccccc3Br)CC2)c(F)c1
0.6	-0.4	-10%	i	-2.2	0.7	-2.5	CCOc1cccc2cc(C(=O)NCCC3=CCCCC3)c(=O)oc12
nt	9.2	0%	i	-1.4	nt	-3.5	CC(C)CCNC(=O)C1CCN(Cc2cccc(OCc3ccccc3)c2)CC1
-3.0	nt	nt	nt	3.0	0.72	2.3	CC(=O)c1cc(C#N)c(SCc2ccccc2C#N)nc1C
5.4	-0.9	-1%	i	-0.7	0.68	5.6	Cn1c(SCC(=O)Nc2nccs2)nnc1C1CC1
0.5	nt	8%	nt	-7.3	0.78	1.9	O=C(c1cc2ncc(Br)cn2n1)N1CCN(C(=O)c2ccco2)CC1
nt	0.9	nt	i	-0.7	nt	2.9	O=C(CNC(=O)C12CC3CC(CC(C3)C1)C2)N/N=C\c1ccco1
4.6	-4.2	-3%	i	3.5	0.7	1.8	Cc1ccc(CNC(=O)C(Cc2ccccc2)NS(=O)(=O)c2ccc3c(c2)CCC(=O)N3)cc1 (stereo not given)
0.7	-0.9	nt	i	2.3	0.65	1.1	COc1ccc(CNc2ncc(-c3ccccc3)n2C)cc1

Further structures.
UCH37 inh	MLL AF4-AF9 inh	Vif TR-FRET	FGF22 binding	HNF4A DNA FP	E coli growth	RanGTP-Impb inh	smiles
2.0	1.5	5%	i	1.3	0.59	3.5	Cc1ccc(C(C(=O)NC2CCCC2)N(C(=O)c2csnn2)C2CC2)cc1 (stereo not given)
0.7	nt	-4%	nt	-2.1	0.71	-1.2	Cc1ccccc1OC(C)c1nc(-c2ccccc2)no1 (stereo not given)
3.7	14	6%	i	1.8	0.66	2.3	Cc1cccc(Nc2nc(N)c([N+](=O)[O-])c(NCc3ccco3)n2)c1
1.9	1.6	3%	i	5.0	0.67	nt	CC(CN1CCN(CC(C)C(=O)c2ccccc2)CC1)C(=O)c1ccccc1 (stereo not given)
nt	-1.6	-2%	i	-0.4	nt	7.1	C/C(=N\NC(=O)c1ccc(N2CCCC2=O)cc1)c1ccc(O)cc1O
6.1	-1.9	6%	i	-0.3	0.65	-0.3	Cc1ccccc1C(=O)NC(CC(C)C)C(=O)N1CCN(c2ccccc2)CC1 (stereo not given)
2.0	1.5	nt	i	0.3	0.68	-1.7	Cn1nc(C(=O)NCc2ccco2)c2ccccc2c1=O
-1.6	nt	-5%	nt	-1.6	0.68	-3.6	Cc1cccc(OCC(=O)N2CCOCC2)c1
5.0	3.4	nt	i	4.6	0.7	-0.4	COc1cccc(C(=O)Nc2c3c(nn2-c2ccc([N+](=O)[O-])cc2)CS(=O)(=O)C3)c1
2.9	nt	5%	nt	-2.6	0.72	3.7	Cc1csc(NC(=O)CCn2c(=O)oc3ccccc32)n1
1.9	0.7	-4%	i	3.8	0.66	?	CCC1(c2ccccc2)NC(=O)N(CC(=O)N(C)Cc2ccccc2)C1=O (stereo not given)
0.0	1.5	3%	i	-1.2	0.66	-0.2	COc1ccccc1C(=O)Nc1ccnn1C1CCN(Cc2cnn(C)c2)CC1

Following part.
UCH37 inh	MLL AF4-AF9 inh	Vif TR-FRET	FGF22 binding	HNF4A DNA FP	E coli growth	RanGTP-Impb inh	smiles
5.8	nt	?	i	-4.2	0.6	3.9	OC1=C(O)c2nc3cc(F)ccc3nc21
9.1	2.6	8%	i	3.5	0.67	10	COc1ccc(N2CCN(c3nc4ccccn4c(=O)c3C=O)CC2)cc1
8.8	-3.7	nt	i	0.1	0.67	-0.1	O=C(NC1=NCCS1)c1ccccc1Br
3.4	-0.5	nt	i	1.6	0.67	nt	CN(C(=O)COC(=O)C1CCN(S(=O)(=O)c2ccc3c(c2)OCCO3)CC1)C1CCS(=O)(=O)C1 (stereo not given)
1.0	0.8	nt	i	-2.1	0.67	-0.2	COc1ccc(S(=O)(=O)NCCCn2ccnc2)cc1C(C)(C)C
3.4	nt	10%	nt	-1.3	0.71	-1.6	O=C(NNC(=O)c1ccc2ccccc2c1O)c1ccccc1Cl
3.0	nt	nt	nt	-2.7	0.65	0.9	Cc1ccccc1NC(=O)Cn1c([N+](=O)[O-])cnc1C
1.6	-2.1	1%	i	-1.6	0.8	0.3	CCN(Cc1ccccc1)C(=O)c1cc2c(=O)oc3ccc(C)cc3c2s1
-0.4	-1.4	1%	i	-0.1	0.73	nt	C=CCOc1ccc(/C=C/C(=O)OCC(=O)N2CCC(c3ccccc3)=N2)cc1
4.1	0.5	-1%	i	-2.2	0.66	5.4	CCOC(=O)c1cnn(-c2ccc(NS(=O)(=O)c3ccc(Cl)cc3)cc2)c1C(F)(F)F
-4.4	nt	5%	nt	-0.2	0.66	5.4	Cc1ccc(CNC(=O)CN(C)S(=O)(=O)c2ccc3c(c2)n(C)c(=O)c(=O)n3C)cc1
1.7	3.6	2%	i	0.3	0.7	-5.3	COc1ccc(OC2C(=O)N(Cc3ccc(F)cc3)C2c2ccc(OC)c(OC)c2)cc1 (stereo not given)

(list continues)
UCH37 inh	MLL AF4-AF9 inh	Vif TR-FRET	FGF22 binding	HNF4A DNA FP	E coli growth	RanGTP-Impb inh	smiles
-31	-2.8	nt	i	0.4	0.61	-1.3	CCC(=O)Nc1c(-c2ccc(C)cc2)nc2ccc(C)cn12
2.7	-0.3	nt	i	-76	0.71	-6.4	O=C(CCNC(=O)N1CC(=O)Nc2ccccc21)Nc1ccc(F)c(Cl)c1
nt	5.1	nt	i	-0.8	nt	nt	CC(=O)N1N=C(c2ccc(Br)cc2)CC1c1cccc([N+](=O)[O-])c1 (stereo not given)
-0.8	nt	1%	nt	1.4	0.78	-3.9	O=C(CN1CCCCCC1)Nc1ccc(Br)cc1Br
5.4	0.6	-4%	i	-1.8	0.67	-0.2	COC(=O)C(Cc1ccccc1)NC(=O)CCc1c[nH]c2ccccc12 (stereo not given)
3.7	nt	1%	nt	-1.3	0.66	-3.4	Cc1sc2c(c1C)CN(C(C)(C)C)CN2C(=O)c1ccccc1
2.1	nt	0%	nt	-1.8	0.65	1.3	CCn1c(=O)c2c(nc(SCc3ccccn3)n2C)n(C)c1=O
3.9	-0.4	3%	i	2.3	0.66	-0.8	COc1ccc(C)cc1S(=O)(=O)NCC(c1ccc2c(c1)OCO2)N1CCOCC1 (stereo not given)
-30	1.4	-7%	i	4.7	0.7	6.5	Nc1nnc(/C=C/c2ccccc2Cl)s1
1.7	nt	3%	nt	-0.1	0.71	-4.4	N#CCc1ccc(C(=O)c2ccccc2)s1
-37	-1.8	-2%	i	-4.3	0.68	?	O=C(Nc1ccccc1)c1ccc(C(=O)Nc2ccccc2)nc1
0.2	nt	7%	nt	-3.7	0.66	7.9	COc1ccc(NC(=O)CNS(=O)(=O)c2cccc3nonc23)c(OC)c1

3 compounds out of the list, arranged by SMILES length, rising.
UCH37 inh	MLL AF4-AF9 inh	Vif TR-FRET	FGF22 binding	HNF4A DNA FP	E coli growth	RanGTP-Impb inh	smiles
5.4	0.6	-4%	i	-1.8	0.67	-0.2	COC(=O)C(Cc1ccccc1)NC(=O)CCc1c[nH]c2ccccc12 (stereo not given)
2.7	-0.3	nt	i	-76	0.71	-6.4	O=C(CCNC(=O)N1CC(=O)Nc2ccccc21)Nc1ccc(F)c(Cl)c1
-0.4	-1.4	1%	i	-0.1	0.73	nt	C=CCOc1ccc(/C=C/C(=O)OCC(=O)N2CCC(c3ccccc3)=N2)cc1

Additional compounds:
UCH37 inh	MLL AF4-AF9 inh	Vif TR-FRET	FGF22 binding	HNF4A DNA FP	E coli growth	RanGTP-Impb inh	smiles
-0.4	-0.1	nt	i	3.0	0.68	0.0	CCn1c(CNS(=O)(=O)c2ccc(Br)cc2)nnc1SC
7.1	1.8	-9%	i	0.2	0.69	0.3	Nc1c(C=C2C=CC(=O)C=C2)c(=O)nc2sc(CC(=O)N3CCCC3)nn12
1.4	-3.0	-4%	i	2.4	0.68	1.4	OCCCCNCc1cc(Br)ccc1OCc1ccccc1F
1.6	-12	-3%	i	0.7	0.68	nt	CC(OC(=O)C1CCCCC1)C(=O)Nc1ccc(S(N)(=O)=O)cc1 (stereo not given)
nt	-0.5	nt	i	5.4	nt	nt	Cn1c(=O)c2cc(NC(=O)Cc3cccnc3)ccc2n1-c1ccc2ccccc2c1
-2.0	-18	5%	i	-3.7	0.67	3.2	CCOc1ccc(OCCC(=O)OCC(=O)Nc2ccc(Cl)cn2)cc1
nt	-1.5	0%	i	-0.8	nt	1.1	C/C=N\NC(=O)COc1cc(C)ccc1C
-0.1	0.0	16%	i	-1.3	0.71	9.8	O=C(Nc1ccc2[nH]c(=O)[nH]c2c1)Nc1ccc(F)cc1F
4.0	-1.2	nt	i	-3.6	0.7	5.5	COc1ccc(OCc2cc(C(=O)N3CCCN(C(C)=O)CC3)no2)c(Cl)c1
-75	-5.9	1%	i	-1.3	0.66	-2.8	COc1ccccc1NC(=O)C1=C(C)NC2=C(C(=O)CCC2)C1c1ccc2c(c1)OCO2 (stereo not given)
5.3	nt	nt	nt	nt	0.71	-0.2	Cc1cccc(C(=O)N2CCc3cc(-c4nc(NC(=O)Cn5nnc6ccccc6c5=O)sc4C)ccc32)c1
5.1	nt	-1%	nt	3.3	0.69	-2.8	Cc1nnc2n(C3CCCCC3)c(=O)c3c4c(sc3n12)COC(C)(C)C4
-1.8	-1.0	3%	i	1.5	0.63	?	O=S(=O)(Nc1ncccn1)c1ccc(-n2cnnn2)cc1

Only part of the results is shown; rates above refer to the full screens.
